SARS PLpro yeast = qHTS of Yeast-based Assay for SARS-CoV PLP | 0.19% of 330,000 active | S. cerevisiae expressing SARS-CoV PLpro, growth rescue; control for the full effect not named in the record | Potency, µM (doses to about 32.9 µM), without a hit: at the highest dose activity, positive = growth rescue; active means well fitted rising curve with a large enough effect; inconclusive means small, poorly fitted or top-dose-only effect; inactive means no such curve, though single readings can be large or run the other way; also: 0% is about no effect; nearly all actives have a fitted effect of over 55% in size; growth read by luminescence after 48 h
NS1 function inh = qHTS Assay for Inhibitors of Influenza NS1 Protein Function. S. cerevisiae slowed by influenza A NS1, growth recovery by OD600. Potency, µM (titrated, usually from 46.1 µM), inactives show top-dose activity, positive = more growth. 0.4% of 270,000 active. AID 2326, 2010; active means well fitted rising curve with a large enough effect; inconclusive means small, poorly fitted or top-dose-only effect; inactive means no such curve, though single readings can be large or run the other way; also: nearly all actives have a fitted effect of over 50% in size
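Read-out: OD600 growth recovery of NS1-expressing budding yeast. Cells grown overnight at 30C in -URA glucose medium, washed, resuspended and diluted 1:100 in 2% galactose assay medium, pH 6.0. Same strain lacking NS1 served as positive control.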
Marburg entry inh = qHTS for inhibitors of binding or entry into cells for Marburg Virus; Marburg virus pseudotyped entry inhibition, cell reporter; control for the full effect not named in the record; about a third of the inactives were read at about 46 µM; Potency, µM (highest dose often 37.8 µM), for inactives: at the top dose activity change, negative = inhibition, most hits filed as inhibitors; 1.8% of 300,000 active; active = well fitted inhibition curve with a large enough effect; inconclusive = small, poorly fitted or top-dose-only effect, or effect the other way; inactive = flat fitted curve, though single readings scatter; tested in HEK293 cells; about a fifth of its hits are not listed in these tables; also: % is scaled to controls: 0 for no effect and ±100 for the full control effect; luciferase read-out
Lassa entry inh = qHTS for Inhibitors of binding or entry into cells for Lassa Virus | 1.2% of 300,000 active | Lassa virus pseudotype entry inhibition, cell reporter; control for the full effect not named in the record | Potency, µM (highest dose often 37.9 µM), inactives show top-dose activity change, negative = inhibition, actives largely listed as inhibitors | AID 540256, 2011; active means well fitted inhibition curve with a large enough effect; inconclusive means small, poorly fitted or top-dose-only effect, or effect the other way; inactive means flat fitted curve, though single readings scatter; tested in HEK293 cells; also: % is scaled to controls: 0 for no effect and ±100 for the full control effect; nearly all actives have a fitted effect of over 50% in size; luciferase read-out
Cruzain Triton = qHTS Assay for Promiscuous and Specific Inhibitors of Cruzain (with detergent); Cruzipain (Trypanosoma cruzi), P25779; purified cruzain, Z-FR-AMC fluorescence, 0.01% Triton; Potency, µM, inactives show max response, negative = inhibition, hits mostly inhibitors; 0.43% of 200,000 active; AID 1478, 2009;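 also: plate controls were neutral wells for no effect and buffer without enzyme for full effect; nearly all actives have a fitted effect of over 40% in size; top concentration of the series not given in the record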
Target sequence (P25779 123-467 limits assumed): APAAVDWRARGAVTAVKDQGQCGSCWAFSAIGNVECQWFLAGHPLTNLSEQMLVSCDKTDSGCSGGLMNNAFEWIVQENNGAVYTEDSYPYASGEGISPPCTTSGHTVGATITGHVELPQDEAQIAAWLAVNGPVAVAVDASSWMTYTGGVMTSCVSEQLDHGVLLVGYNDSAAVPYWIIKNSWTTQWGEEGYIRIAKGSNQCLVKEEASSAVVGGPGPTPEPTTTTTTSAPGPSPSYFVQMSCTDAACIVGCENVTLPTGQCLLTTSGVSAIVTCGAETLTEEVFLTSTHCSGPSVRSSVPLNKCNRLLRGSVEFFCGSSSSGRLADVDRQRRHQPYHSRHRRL
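Detergent-containing run (0.01% Triton X-100) in acetate buffer pH 5.5 with 5 mM DTT: enzyme at 1.5 nM final, 15 min compound preincubation at room temperature, then 2 uM Z-FR-AMC substrate. Activity taken as 60 s fluorescence increase at 360/450 nm.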
2A StopGo = High Throughput Screening for Foot and Mouth Disease Virus Antivirals. Potency, µM (top dose mostly 57.9 µM), without a hit: at the highest dose signal change, negative = less light. human cells with a luciferase reporter of 2A StopGo recoding; control for the full effect not named in the record. 1.2% of 410,000 active; active = well fitted falling curve with a large enough effect; inconclusive = small, poorly fitted or top-dose-only effect; inactive = no such curve, though single readings can be large or run the other way; tested in HEK293T cells; also: % is scaled to controls: 0 for no effect and ±100 for the full control effect; nearly all actives have a fitted effect of over 45% in size; luciferase light after 4 h
RE007 growth inh = qHTS Assay for Inhibitors of the HIV-1 protein Vpr; S. pombe RE007 Vpr strain, BacTiter-Glo ATP luminescence, 24 h; control for the full effect not named in the record; 0.21% of 360,000 active; Potency, µM (series often up to 92.2 µM), inactives show top-dose activity change, negative = less growth; active = well fitted falling curve with a large enough effect; inconclusive = small, poorly fitted or top-dose-only effect; inactive = no such curve, though single readings can be large or run the other way;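 also: % is scaled to controls: 0 for no effect and ±100 for the full control effect; nearly all actives have a fitted effect of over 50% in size; the assay follows cell death caused by Vpr and the record does not say whether a fall means rescue or toxicity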
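Fission yeast RE007 carrying one integrated HIV-1 vpr copy, seeded at OD 0.01 in PMG+AL medium with 23 nL pinned compound. Grown 24 h at 30 degrees; viability read by BacTiter-Glo luminescence after 5 min.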
Cruzain noTriton = qHTS Assay for Promiscuous and Specific Inhibitors of Cruzain (without detergent) | Cruzipain (Trypanosoma cruzi), P25779 | purified cruzain, Z-FR-AMC fluorescence, no detergent | Potency, µM, for the others: max response, negative = inhibition, actives largely listed as inhibitors | 2.3% of 200,000 active | AID 1476, 2009;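 also: plate controls were enzyme without inhibitor for no effect and buffer without enzyme for full effect; nearly all actives have a fitted effect of over 40% in size; top concentration of the series not given in the record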
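Purified cruzain at 1.5 nM, pre-incubated 15 min with compound at room temperature in 100 mM sodium acetate pH 5.5, 5 mM DTT, 0.00005% Triton X-100. Reaction started with 2 uM Z-FR-AMC; AMC fluorescence increase over 60 s gives rate.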
* marks the source's active call; other numbers are inactive results; ? = inconclusive; · = no result given; & = joins results of further samples; [ ] = dose if it differs, or a comment. Unless noted, calls follow the shape of the dose curve; as a rule, active = well fitted curve in the direction sought with a large enough effect; inconclusive = small, poorly fitted or top-dose-only effect, or another doubt; inactive = no such curve, though single readings can be large; an effect the other way counts as inactive or inconclusive. Potency is read from the fitted curve at half-maximal effect.

SMILES	SARS PLpro yeast	NS1 function inh	Marburg entry inh	Lassa entry inh	Cruzain Triton	2A StopGo	RE007 growth inh	Cruzain noTriton
COc1ccc(CNC(=O)Cn2c(=O)c3cccn3c3ccccc32)cc1	·	·	·	-22%[46.1 µM]	-2.0%	-9%	·	32µM*
CCCCc1ccc(Nc2ncnc3c2cnn3-c2ccc(C)cc2)cc1	·	·	·	15%[46.1 µM]	0.7%	2%	·	-1%
CC(C)Cn1c(SCc2nnc(-c3cccs3)o2)nc(O)cc1=O	4%	?	-3%[46.1 µM]	6%	-7.4%	-7%	0%	-4%
CC(C)C[C@H](NC(=O)OC(C)(C)C)C(=O)N/N=C/c1ccc2nccnc2c1	0%	-2%	?	9%	-2.3%	12%	0%	?
CC(=O)Nc1ccc(N(C(=O)CNC(=O)c2cccs2)C(C(=O)NCC2CCCO2)c2ccccc2)cc1 (stereo not drawn)	1%	4%	9%[46.1 µM]	2%	·	0%	0%	·
COCCCNC(=O)/C(C#N)=C/c1c(N2CCN(c3ccccc3)CC2)nc2ccccn2c1=O	-4%	0%	8%	17%	·	37%[activator]	4%	·
COc1ccc(S(=O)(=O)N2CCOCC2)cc1NC(=O)CSc1nnc(N)s1	4%	·	?	-17%[46.1 µM]	·	-2%	-13%	·
C=CCNc1nc(C(=O)OCC(=O)NCc2ccccc2OC)cs1	·	·	-3%	5%	·	-12%	6%	·
O=C(CSc1nc2nc(-c3cccs3)cc(C(F)(F)F)c2c(=O)[nH]1)NCc1ccco1	5%	8%	-22%&-22%	-10%	-17%	0%	3%	-18%
CCc1ccc(OCC(=O)NC2CCCCC2)c(Br)c1	-4%	3%	·	·	·	2%	-5%	·
Cc1ccc(NC(=O)/C=C/c2ccco2)nc1	-8%	-4%	7.1µM*	?	-5.4%	0%	37%	-15%
COc1ccc(CCC(=O)O)cc1OC	-1%	3%	14%[46.1 µM]	19%	·	18%	2%	·
Cc1cc(C)n(-c2nc(NCCN(C)C)c3c4c(sc3n2)COC(C)(C)C4)n1	-1%	-1%	7.1µM*	13µM*	·	-8%	-16%	·
O=C(CSc1cn(CC(=O)N2CCOCC2)c2ccccc12)Nc1ccccc1C(F)(F)F	·	·	·	0%[46.1 µM]	-0.5%	1%	·	23%
CCCn1c(SC(C(=O)Nc2cc(C)ccc2OC)c2ccccc2)nc2ccccc2c1=O (stereo not drawn)	3%	-2%	-5%	0%	-4.2%	-16%	16%	?
CCc1c(C)c(C#N)c2nc3ccccc3n2c1N1CCN(c2cc(C)ccn2)CC1	0%	-5%	·	·	2.7%	·	·	-1%
Cc1cccc[n+]1CC(=O)Nc1ccccc1	1%	-3%	18%	3%	·	-7%	0%	·
Cc1[nH]c2ccc3ccccc3c2c(=O)c1C/C=C/Cl	-12%	-13%	-14%	20%	·	-3%	-2%	·
NS(=O)(=O)c1ccc(CNC(=O)COc2ccc3c4c(c(=O)oc3c2)CCCC4)cc1	-5%	0%	0%[46.1 µM]	11%[46.1 µM]	·	-12%	23%	·
O=C(CN1C(=O)C2(OCCO2)c2cc(Br)ccc21)NO	·	·	?	-30%	·	-11%	-7%	·

Part of the list above in order of count of non-hydrogen atoms, lowest first.
SMILES	SARS PLpro yeast	NS1 function inh	Marburg entry inh	Lassa entry inh	Cruzain Triton	2A StopGo	RE007 growth inh	Cruzain noTriton
COc1ccc(CCC(=O)O)cc1OC	-1%	3%	14%[46.1 µM]	19%	·	18%	2%	·
Cc1ccc(NC(=O)/C=C/c2ccco2)nc1	-8%	-4%	7.1µM*	?	-5.4%	0%	37%	-15%
CCc1ccc(OCC(=O)NC2CCCCC2)c(Br)c1	-4%	3%	·	·	·	2%	-5%	·
CC(C)Cn1c(SCc2nnc(-c3cccs3)o2)nc(O)cc1=O	4%	?	-3%[46.1 µM]	6%	-7.4%	-7%	0%	-4%
C=CCNc1nc(C(=O)OCC(=O)NCc2ccccc2OC)cs1	·	·	-3%	5%	·	-12%	6%	·
CCCCc1ccc(Nc2ncnc3c2cnn3-c2ccc(C)cc2)cc1	·	·	·	15%[46.1 µM]	0.7%	2%	·	-1%
Cc1cc(C)n(-c2nc(NCCN(C)C)c3c4c(sc3n2)COC(C)(C)C4)n1	-1%	-1%	7.1µM*	13µM*	·	-8%	-16%	·
O=C(CSc1nc2nc(-c3cccs3)cc(C(F)(F)F)c2c(=O)[nH]1)NCc1ccco1	5%	8%	-22%&-22%	-10%	-17%	0%	3%	-18%
O=C(CSc1cn(CC(=O)N2CCOCC2)c2ccccc12)Nc1ccccc1C(F)(F)F	·	·	·	0%[46.1 µM]	-0.5%	1%	·	23%
CCCn1c(SC(C(=O)Nc2cc(C)ccc2OC)c2ccccc2)nc2ccccc2c1=O (stereo not drawn)	3%	-2%	-5%	0%	-4.2%	-16%	16%	?
COCCCNC(=O)/C(C#N)=C/c1c(N2CCN(c3ccccc3)CC2)nc2ccccn2c1=O	-4%	0%	8%	17%	·	37%[activator]	4%	·
CC(=O)Nc1ccc(N(C(=O)CNC(=O)c2cccs2)C(C(=O)NCC2CCCO2)c2ccccc2)cc1 (stereo not drawn)	1%	4%	9%[46.1 µM]	2%	·	0%	0%	·

(further entries)
SMILES	SARS PLpro yeast	NS1 function inh	Marburg entry inh	Lassa entry inh	Cruzain Triton	2A StopGo	RE007 growth inh	Cruzain noTriton
CN1CCN(C(=O)N(c2ccccc2)c2ccccc2)CC1	·	·	3%[46.1 µM]	-3%[46.1 µM]	·	-12%	-10%	·
CCOC(=O)C1=C2N(C)c3ccccc3N2CCC1=O	-1%	-2%	9%	4%	-2.6%	-3%	2%	-8%
CCCC(c1nnnn1C1CCCCC1)N1CCN(C(=O)c2ccco2)CC1 (stereo not drawn)	·	-3%	-6%[46.1 µM]	-20%	·	4%	8%	·
COc1c(S(=O)(=O)N2CCCC2)ccc(Cl)c1Cl	-6%	-6%	-7%	-15%	2.8%	-7%	6%	1%
O=C(CCCCn1c(=O)[nH]c2ccccc2c1=O)NCCC1=CCCCC1	-2%	-7%	-19%	3%	6.7%	22%	18%	5%
Cc1ccc(C)c(N2CCN(c3ncccc3[N+](=O)[O-])CC2)c1	-9%	-2%	2.5µM*	?	·	0%	-6%	·
CCOC(=O)C1CCN(C(=O)c2ccccc2NC(=O)C2=C(C)OCCS2)CC1	-2%	8%	·	·	·	-3%	1%	·
Cc1cccc(OCc2nnc(SCC(=O)N3CCN(c4ccccc4)CC3)o2)c1C	8%	2%	-29%	-18%	-5.5%	?	-2%	?
COc1ccccc1N1CCN(CCCCN2C(=O)C3CCCN3C2=O)CC1 (stereo not drawn)	·	·	2%[46.1 µM]	-15%[46.1 µM]	·	2%	-1%	·

Whole records, quoted from the list. Order of values: SARS PLpro yeast	NS1 function inh	Marburg entry inh	Lassa entry inh	Cruzain Triton	2A StopGo	RE007 growth inh	Cruzain noTriton
Shown for `CCOC(=O)C1=C2N(C)c3ccccc3N2CCC1=O` : -1%	-2%	9%	4%	-2.6%	-3%	2%	-8%
Shown for `COc1ccccc1N1CCN(CCCCN2C(=O)C3CCCN3C2=O)CC1` (stereo not drawn) : ·	·	2%[46.1 µM]	-15%[46.1 µM]	·	2%	-1%	·

Screening data from PubChem.
